Screening data from PubChem.
PV pol inh = inhibitors of poliovirus RNA polymerase binding and polymerization | P03300 | poliovirus polymerase elongation, fluorescence polarization; stronger effect = lower value | % elongation, % (compound at 16.7 µg/mL) | 150,000 compounds, 0.66% hits; in the data active means % elongation below about 90%; further: some results filed as inactive read as strong as hits
Target sequence (P03300 1749-2209 limits assumed): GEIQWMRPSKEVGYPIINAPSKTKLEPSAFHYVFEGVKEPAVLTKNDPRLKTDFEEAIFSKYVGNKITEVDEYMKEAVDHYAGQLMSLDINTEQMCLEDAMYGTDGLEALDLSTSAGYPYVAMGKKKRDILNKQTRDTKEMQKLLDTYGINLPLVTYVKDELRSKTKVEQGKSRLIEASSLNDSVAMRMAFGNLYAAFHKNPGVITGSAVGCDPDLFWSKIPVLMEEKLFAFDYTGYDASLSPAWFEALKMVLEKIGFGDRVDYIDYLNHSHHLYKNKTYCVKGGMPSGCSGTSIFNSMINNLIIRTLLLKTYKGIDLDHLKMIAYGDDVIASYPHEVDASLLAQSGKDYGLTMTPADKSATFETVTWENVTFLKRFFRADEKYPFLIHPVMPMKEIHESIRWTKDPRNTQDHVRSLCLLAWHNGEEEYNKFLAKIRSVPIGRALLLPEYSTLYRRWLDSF
MenB inh = blocks the Mycobacterium tuberculosis MenB enzyme; MenB enzyme assay, absorbance read-out; some hits fall short of the stated cut; inhibition, %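 (about 12 µg/mL by stock and volumes)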; 100,000 compounds, 0.43% hits; AID 540299;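 active means mean of two replicates above 30%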;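 further: 0% = no compound and 100% = wells with inactive enzyme; the first replicate is given; strong numbers were not always called active; inactives centre near -10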
Mtb MbtI inh = MbtI salicylate synthase inhibition; 100,000 compounds, 0.89% hits; purified MbtI enzyme, fluorescence intensity read-out; AID 493033; inhibition, %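 (about 17 µg/mL by stock and volumes)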; P9WFX0;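 active means above 50% in both replicates, above 80% if mildly self-fluorescent; inactive means the rest, strongly fluorescent compounds included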;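 further: 0% = mean of negative and 100% = mean of positive controls; one replicate is shown; some compounds called inactive have numbers as strong as hits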
Target sequence (P9WFX0 whole entry, looked up): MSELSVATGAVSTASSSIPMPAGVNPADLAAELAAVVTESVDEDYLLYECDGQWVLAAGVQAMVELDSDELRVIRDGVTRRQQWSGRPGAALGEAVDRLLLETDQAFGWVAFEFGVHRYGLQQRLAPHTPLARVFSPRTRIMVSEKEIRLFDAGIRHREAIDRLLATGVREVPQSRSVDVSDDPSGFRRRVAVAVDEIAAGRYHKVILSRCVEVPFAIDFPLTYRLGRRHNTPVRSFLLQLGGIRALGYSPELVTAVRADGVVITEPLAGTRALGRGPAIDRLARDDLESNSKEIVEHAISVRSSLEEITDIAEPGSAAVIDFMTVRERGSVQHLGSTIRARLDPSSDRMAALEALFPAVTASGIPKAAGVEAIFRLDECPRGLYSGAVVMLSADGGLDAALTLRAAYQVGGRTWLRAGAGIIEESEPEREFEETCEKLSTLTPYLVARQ
PV pol inh intensity = further read-out of PV pol inh, marked with its call; % elongation; measured here: total intensity read-out; formula for this scale not given here;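 total fluorescence in place of polarization; lower means less elongation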
An asterisk follows results filed as active; x = not tested or not shown; & = joins results of further samples.

Start of the data: the first three records, ahead of the listing:
SMILES | PV pol inh | PV pol inh intensity | MenB inh | Mtb MbtI inh
Cc1c(NC(=O)CN2C(=O)c3ccccc3C2=O)c(=O)n(-c2ccccc2)n1C | 98 | 102 | 5 | -9
COc1cccc(C#N)c1 | 98 | 89 | -33 | 10
CS(=O)(=O)c1ccc(C2=C(c3ccccc3)C(=O)OC2)cc1 | 100 | 102 | -1 | -21

Results (from the top)
SMILES | PV pol inh | PV pol inh intensity | MenB inh | Mtb MbtI inh
Cc1c(NC(=O)CN2C(=O)c3ccccc3C2=O)c(=O)n(-c2ccccc2)n1C | 98 | 102 | 5 | -9
COc1cccc(C#N)c1 | 98 | 89 | -33 | 10
CS(=O)(=O)c1ccc(C2=C(c3ccccc3)C(=O)OC2)cc1 | 100 | 102 | -1 | -21
COC(=O)c1ccc(CSC2=NCCS2)cc1 | 105 | 107 | -1 | 6
NCC[C@@H](O)C(=O)N[C@@H]1C[C@H](N)[C@@H](O[C@H]2O[C@H](CN)[C@@H](O)[C@H](O)[C@H]2O)[C@H](O)[C@H]1O[C@H]1O[C@H](CO)[C@@H](O)[C@H](N)C1O (some centres not stated) | 100 | 98 | 8 | -5
COc1ccc(NC(=S)NCCn2cc(Br)cn2)cc1OC | 98 | 103 | -20 | 1
Cc1cc2oc(=O)c3c(c2c(O)c1CN(C)C)CCCC3 | 101 | 108 | 6 | x
COc1ccccc1C(=O)COC(=O)CSc1nnc(-c2ccco2)n1Cc1ccccc1 | 112 | 117 | -23 | 6
CCC(C)SCc1nc2ccccc2[nH]1 (configuration not stated) | 105 | 113 | -1 | -1
Cc1oc(C(C)(C)C)cc1-c1cc(N)n(-c2ccc(S(N)(=O)=O)cc2)n1 | 102 | 96 | 7 | 2
COc1cccc(NC(=O)c2sc3ncnc(N4CCc5ccccc5C4)c3c2C)c1 | 101 | 103 | -15 | 4
CCOc1ccc(NC(=O)c2cnn(-c3ccccc3)c2NC(=O)c2ccco2)cc1 | 103 | 102 | -35 | -83
CC1=NCC(=O)Nc2cc3c(cc21)OCCO3 | 101 | 102 | 22 | 4
CCCCN1C(=O)N(c2nnc(C(C)(C)C)s2)C(=O)C1c1ccc(Cl)c(Cl)c1 (configuration not stated) | 114 | 107 | -17 | -5
CN(C)c1ccc(CN(CC2CCCO2)S(=O)(=O)c2cccs2)cc1 (configuration not stated) | 108 | 110 | -9 | -2
Cc1ccc(S(=O)(=O)c2ncsc2Cl)cc1 | 101 | 100 | 6 | 4
O=C(Nc1cccc2ccccc12)c1ccc(C(F)(F)F)cc1 | 102 | 101 | 1 | x
COc1ccccc1C(=O)N(C(C)C)C(C)C | 99 | 103 | -8 | x
CC(C)C(=O)Nc1cccc(-c2nc3ncccc3o2)c1 | 101 | 100 | -5 | 109
CC1=Nc2cccc3cccc(c23)N1 | 101 | 101 | -2 | 28
COc1cc(/C=C2\SC(=S)N(C3CCS(=O)(=O)C3)C2=O)cc(Br)c1O (configuration not stated) | 111 | 132 | -17 | 9
COc1cc2ccccc2cc1C(=O)OCC(=O)c1ccc(Cl)cc1 | 97 | 92 | x | -4
CN(C)C(CNC(=O)Cc1cccc(C(F)(F)F)c1)c1ccco1 (configuration not stated) | 112 | 113 | -21 | 0
Cc1ccc2cccc(I)c2n1 | 103 | 101 | -5 | 12
O=C(Cn1cnc2ccccc21)Nc1ccccc1 | 102 | 103 | -16 | -20
N#CCC(=O)Nc1ccc(F)cc1F | 103 | 107 | x | 5
C[S+](C)c1c(-c2ccccc2)nc2ccccn12 | 102 | 105 | x | 152
COc1cccc2c1Oc1ncccc1N(C(=O)CCC(=O)NC1CCCCC1)C2 | 103 | 103 | -13 | -12
CN1/C(=C\C(=O)COC(=O)c2cccc(S(=O)(=O)N3CCOCC3)c2)C(C)(C)c2ccccc21 | 108 | 95 | -40 | -5
CCC1(C)NC(C(=O)O)Cc2c1[nH]c1ccccc21 (configuration not stated) | 102 | 103 | -2 | 2
Cn1c2c(cc(C#N)c1=O)COC(C)(C)C2 | 101 | 102 | -8 | 117
O=C(CSC1=NS(=O)(=O)c2ccccc2N1)N1CCCc2ccccc21 | 102 | 110 | -12 | 19
CCOc1ccc(NC(=O)CCC(=O)O)cc1 | 104 | 98 | x | 0
CCOc1ccc(-n2c(-c3ccco3)nc3c(cnn3-c3ccc(C)cc3)c2=O)cc1 | 99 | 100 | -11 | -8
COc1cc2c(C(=O)N3CCN(c4ccccc4)CC3)cn(CC(C)C)c(=O)c2cc1OC | 102 | 105 | -16 | -14
CCOC(=O)c1cnn(-c2ccccc2)c1NC(=O)C(F)(F)F | 102 | 102 | -7 | -14
CCCc1[nH]nc2c1C(CCC)C(C#N)=C(N)O2 (configuration not stated) | 102 | 102 | -11 | 29
CCc1ccccc1NC(=O)C1CCN(c2nn3cc(-c4ccc(C)cc4)nc3s2)CC1 | 99 | 102 | -8 | -12
CCCCNC(=O)NS(=O)(=O)c1ccc(C)cc1 | 103&100&101 | 103&103&101 | -6&-2 | -17&1
CC1(C)Oc2ccc(C(=O)N3CCCC3)cc2N(CC(=O)N2CCCCC2)C1=O | 101 | 102 | 2 | 0
CCN1CCN(c2ncc(C(=O)OC)c3ccccc23)CC1 | 99 | 101 | -7 | 20
CCN1C[C@]2(COC)[C@H](O)C[C@H](OC)[C@@]34[C@@H]5C[C@@]6(O)[C@H](OC(=O)c7ccccc7)[C@@H]5[C@@](OC(C)=O)(C([C@H](OC)[C@H]23)[C@@H]14)[C@@H](O)[C@@H]6OC | 101 | 102 | x | -3
CCN1CCc2c(sc(-n3cccc3)c2CNC(=O)Nc2cc(Cl)ccc2C(=O)OC)C1 | 102 | 105 | -10 | -7
Cn1c(=O)c2c(nc3n2CC(C(C)(C)C)=NN3Cc2cccc3ccccc23)n(C)c1=O | 105 | 109 | -26 | 5
O=C(O)Cn1c2ccc(Br)cc2c2nc3ccccc3nc21 | 102 | 102 | -13 | 7
C=CCNC(=O)CSc1nc2cc(C)cc(C)c2cc1C#N | 102 | 104 | -2 | 4
Cc1nnc(COC(=O)c2c3c(nc4ccccc24)CCC(C(C)(C)C)C3)o1 (configuration not stated) | 102 | 102 | -27 | -2
CCOCc1nnc(NS(=O)(=O)c2ccc(Cl)cc2)s1 | 100 | 102 | 14 | 16
CCNc1ccc(C(=O)OCC)cc1NC(=O)Nc1ccc(F)cc1 | 101 | 105 | 7 | -40
Cc1sc2nc(CN3CCCCC3)nc(N)c2c1C | 102 | 82 | -34 | 11

Fetched by structure from the list above:
SMILES | PV pol inh | PV pol inh intensity | MenB inh | Mtb MbtI inh
CN(C)c1ccc(CN(CC2CCCO2)S(=O)(=O)c2cccs2)cc1 (configuration not stated) | 108 | 110 | -9 | -2
O=C(Nc1cccc2ccccc12)c1ccc(C(F)(F)F)cc1 | 102 | 101 | 1 | x
Cc1sc2nc(CN3CCCCC3)nc(N)c2c1C | 102 | 82 | -34 | 11
CN(C)C(CNC(=O)Cc1cccc(C(F)(F)F)c1)c1ccco1 (configuration not stated) | 112 | 113 | -21 | 0
C=CCNC(=O)CSc1nc2cc(C)cc(C)c2cc1C#N | 102 | 104 | -2 | 4
Cc1oc(C(C)(C)C)cc1-c1cc(N)n(-c2ccc(S(N)(=O)=O)cc2)n1 | 102 | 96 | 7 | 2

(next part)
SMILES | PV pol inh | PV pol inh intensity | MenB inh | Mtb MbtI inh
COc1ccc(C(=O)c2cnc3ncccn23)cc1 | 102 | 106 | -6 | 8
Nc1nc(SCc2ccccc2)ns1 | 104 | 103 | -40 | 9
CN(C)c1ccc(NC(=S)NC2CCCCC2)cc1 | 102 | 103 | -15 | 0
CC(O)c1ccc2ccccc2c1 (configuration not stated) | 103 | 107 | 1 | -15
Cc1nc2c(cnn2-c2ccccc2)c(=O)n1-c1ccccc1 | 103 | 105 | -15 | 4
O=C(Nc1ccccc1)Nc1nccs1 | 97 | 105 | 5 | -2
O=c1ccc(-c2nc3c4c5c(sc4ncn3n2)CCCC5)n[nH]1 | 101 | 102 | 10 | -6
CCOC(=O)c1ccc(C(=S)N2CCCC2)cc1 | 69* | 67* | -8 | 77*
S=C(NCCN1CCOCC1)NNc1c(Cl)cc(Cl)cc1Cl | 103 | 108 | -19 | 58
COC(=O)C1C(=O)c2cc(OC)c(OC)cc2C1c1ccccc1 (configuration not stated) | 104 | 112 | -7 | x
COc1ccccc1-c1coc2cc(OCc3ccc(C)cc3)ccc2c1=O | 102 | 105 | 6 | 0
CC(=O)Nc1c(O)nc(SCC(=O)N2CCOCC2)[nH]c1=O | 106 | 113 | 5 | x
Nc1nc(CC(=O)NN=C2CCCCCC2)cs1 | 100 | 104 | -60 | 1
Fc1ccc(COC(CN2CCCCC2)CN2CCCCC2)cc1 | 103 | 103 | -11 | -11
CCOC(=O)C1=C(CSc2nnc(-c3ccc(OC)cc3)o2)NC(=O)NC1C (configuration not stated) | 111 | 121 | -17 | -7
CC(=O)NCCSCc1c(F)cccc1Cl | 98 | 94 | -17 | -3
COc1ccc(OCCSc2nnc(CCNC(=O)c3ccc(OC)cc3)n2C)cc1 | 99 | 101 | -8 | 3
CCc1ccc(S(=O)(=O)NCc2cn3ccccc3n2)s1 | 103 | 98 | -20 | -15
O=c1[nH]c(O)c(C=NCc2ccc(Cl)cc2)c(=O)[nH]1 | 103 | 103 | -33 | -80
CC(C)N1C(=O)/C(=C/c2cccc(Br)c2)SC1=S | 102 | 103 | -13 | 4
CCc1cc(-c2[nH]ncc2-c2nc(C)cs2)c(O)cc1OC(C)C(=O)NN (configuration not stated) | 105 | 108 | -1 | x
O=C(Cn1nc(-c2cccc(-n3cccc3)c2)oc1=O)N1CCCCC1 | 102 | 103 | 11 | -1
Cc1nc2ccc(S(=O)(=O)N(CC(=O)N3CCN(C)CC3)Cc3ccccc3)cc2s1 | 100 | 103 | -13 | -23
O=C(NC(=O)C(F)(F)F)Nc1nncs1 | 100 | 105 | 4 | -17
CC(=O)Nc1ccccc1OCC(=O)NCC(F)(F)F | 102 | 109 | -16 | 22
CCOc1ccc(-n2c(=O)/c(=C\c3ccco3)s/c2=C(/C#N)C(=O)C(C)(C)C)cc1 | 118 | 124 | -1 | -7
CCCOC1(C(F)(F)F)NC(=O)N(Cc2ccccn2)C1=O (configuration not stated) | 101 | 99 | -29 | 3
O=C(/C=C\c1ccc2c(c1)OCO2)OCn1nnc2ccccc2c1=O | 104 | 108 | -19 | -5
S=C1N2CCN=C2SC2=NCCN12 | 102 | 99 | 14 | 24
FC(F)(F)c1nc(NCCc2ccccc2)nc2c1CCCCC2 | 102 | 107 | -20 | 8
Cc1cc(-c2ccc(S(=O)(=O)Nc3ccccc3)s2)on1 | 103 | 104 | -47 | 2
Cc1nnc2c3ccccc3nc(Nc3ccc(N4CCOCC4)cc3)n12 | 101 | 102 | -13 | 36
COc1cc(N=Cc2cccs2)c(OC)cc1Cl | 106 | 101 | 7 | 0
COc1cccc(OC)c1C(=O)N1CCN(C(=O)COc2ccc(Cl)cc2)CC1 | 102 | 104 | -14 | 2
O=C(CCS(=O)(=O)c1ccc(Br)s1)NC(c1ccccc1)c1ccccc1 | 102 | 103 | -22 | 1
COc1cccc(NC(=O)C2C3C=CC4(O3)C2C(=O)N(Cc2ccc3c(c2)OCO3)C4C(=O)NC2CCCCC2C)c1 (configuration not stated) | 102 | 103 | 16 | 2
CN1CCC(=NNC(=O)COc2ccc(Cl)cc2)CC1 | 101 | 103 | 9 | -2
CCSc1nc2ccccc2n1CC(=O)O | 102 | 104 | -13 | -3
O=C(NCCCc1ccccc1)N1c2ccccc2Sc2ccccc21 | 102 | 109 | -31 | -2
CC(=O)N1CCOc2ccc(S(=O)(=O)NC3CCCCCC3)cc21 | 102 | 102 | 2 | -22
Cc1nc2ncccn2c1-c1csc(NCc2ccco2)n1 | 103 | 103 | -29 | 8
C/C(=N\NC(=O)c1ccc(N2CCCC2=O)cc1)c1ccccc1 | 100 | 102 | 30 | 1
NC(=O)CSc1nnc(SCc2ccc(Cl)cc2)s1 | 99 | 102 | -28 | 8
CCS(=O)(=O)c1ccc2oc(SCC(=O)NC34CC5CC(CC(C5)C3)C4)nc2c1 | 101 | 103 | 3 | -6
Oc1ccc(N2Cc3ccccc3C2)cc1 | 105 | 104 | -40 | -3
CC(NC(=O)CSc1nc2ccccc2c(=O)n1N)c1ccccc1 (configuration not stated) | 100 | 100 | -1 | 68
O=C1c2ccccc2C(=O)N1CCCc1nc(-c2ccccc2)no1 | 103 | 100 | -26 | -9
Cc1nc2cc(-c3ccccc3)sc2c(=O)n1N | 100 | 102 | 21 | 29
O=C(O)C(c1ccccc1)N1C(=O)/C(=C/c2ccncc2)SC1=S (configuration not stated) | 98 | 100 | -16 | 12
CCOc1cc(CC(=O)N[C@@H](CC(C)C)c2ccccc2N2CCCCC2)ccc1C(=O)O | 100 | 102 | 12 | 4
The results go on.
SMILES | PV pol inh | PV pol inh intensity | MenB inh | Mtb MbtI inh
COc1ccc2c(c1)NC(=O)CC(c1ccccc1)=N2 | 104 | 105 | x | -11
COc1ccccc1N=C(NN)c1ccc2ccccc2n1 | 102 | 103 | -26 | 63
CC1CC(=S)Nc2ccccc2S1 (configuration not stated) | 102 | 101 | -24 | 24
CC(=O)Nc1cc(-n2cnnn2)ccc1C | 100 | 103 | 26 | -8
Cc1ccccc1OCCN1CCNC1=S | 98 | 100 | -7 | 45

A stretch from further up, for reference:
SMILES | PV pol inh | PV pol inh intensity | MenB inh | Mtb MbtI inh
Cc1c(NC(=O)CN2C(=O)c3ccccc3C2=O)c(=O)n(-c2ccccc2)n1C | 98 | 102 | 5 | -9
COc1cccc(C#N)c1 | 98 | 89 | -33 | 10

Hits appear at their usual frequency. About 1.7% of those tested had a hit in this group.
